CDC25B-CDK2 inh – primary biochemical HTRF screen for blockers of M-phase inducer phosphatase 2 binding to CDK2/cyclin A. P30305+P24941. HTRF CDC25B-CDK2/CyclinA binding, anti-His/anti-Flag; hits give high values. z-score (no concentration beside the values). 94,000 tested, 0.72% active. AID 1259370, 2018;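 further: score is relative to mean and SD of negative controls; strong numbers were not always called active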
TAR Tat displ – TAR RNA-Tat peptide displacers, HIV-1, primary screen, biochemical, FRET, FAM/TAMRA-labeled Tat; AID 1259389, 2018; HIV-1 TAR RNA, Tat peptide displacement FRET; hits give high values; z-score (test concentration not listed); 100,000 tested, 0.6% active;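 further: score is relative to mean and SD of negative controls; some compounds called inactive have numbers as strong as hits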
* hit, by the source's call; x = no result given.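 How the source made its calls: active means z-score from 3 up in half or more of its runs; inactive means the rest.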

SMILES	CDC25B-CDK2 inh	TAR Tat displ
O=C(O)c1cnc(N2CCOCC2)c2ccccc12	-1.7	1.6
Clc1ccc(-c2cc3ccccc3[nH]2)cc1	-0.36	x
CC(c1ccccc1)N(Cc1ccco1)C(=O)Cn1c(=O)oc2ccccc21 (stereo not drawn)	x	-0.65
CN(Cc1ccco1)S(=O)(=O)c1ccc2c(c1)NC(=O)CO2	x	2.5
CC(C)N1C(=O)c2cc3sccc3n2CC1(C)C(=O)NC1CCCCC1 (stereo not drawn)	-0.94	1.4
COc1ccc(-c2[nH]nc3nc(-c4cc(Br)ccc4OC)cc(C(=O)O)c23)cc1	x	0.92
COc1cc(C)c(Cl)cc1S(=O)(=O)N1CCN(c2cc(N(C)C)nc(C)n2)CC1	-1.9	0.82
Cc1ccc(-c2csc3ncn(Cc4ccncc4)c(=O)c23)cc1	-0.35	-0.15
CCCCNc1nc2c(c(=O)n(C)c(=O)n2C)n1Cc1ccc(Br)cc1	-0.22	1.4
O=[N+]([O-])c1ccc(Oc2cc(S(=O)(=O)c3ccccc3)ccc2[N+](=O)[O-])nc1	-2.1	x
CCCc1ccc(S(=O)(=O)N2CCC(Oc3ccc(-n4cnnn4)cc3)CC2)cc1	-1.1	-2.1
CCC(C)NS(=O)(=O)c1cc(-c2cc(C)[nH]n2)ccc1C (stereo not drawn)	x	1.7
CC(=O)N1CCc2c(sc3c2c(=O)n(-c2ccccc2)c(=O)n3CC(N)=O)C1	-1.2	1.1
COc1ccccc1-c1nnc2sc(-c3cccc(Br)c3)nn12	-0.79	2.3
CCOC(=O)N1CCC(N2C(=O)c3ccccc3C2Nc2ccc3c(c2)OCCO3)CC1 (stereo not drawn)	-0.76	-0.13
O=C(CN1C(=O)c2cccc3cccc1c23)N1CCN(Cc2ccc3c(c2)OCO3)CC1	0.19	-0.8
COc1ccc(/C(O)=C2\C(=O)C(=O)N(CCCn3ccnc3)C2c2ccc(N(C)C)cc2)cc1 (stereo not drawn)	-1.4	0.45
CCOC(=O)Nc1ccc(S(=O)(=O)Nc2cc(C)nc(C)n2)cc1	-0.55	1.7
COc1ccccc1Nc1nnc(Cc2cccnc2)c2ccccc12	-3.1	-1.9
O=C(N/N=C/c1ccc(O)c(Cl)c1)c1sc2ccccc2c1Cl	0.73	x
CCCn1c2ccc(F)cc2c2nnc(SCCN3CCCCC3)nc21	0.57	-0.03
O=C(CCC1Nc2c3ccccc3nc(=S)n2C1=O)N1CCN(c2ccc(F)cc2)CC1 (stereo not drawn)	-2.2	x
Cn1c(=O)n(Cc2ccccc2F)c(=O)c2c1nc1n2CCN1Cc1ccco1	x	4.7*
CCOCCOC(NC(=O)OCC)(C(F)(F)F)C(F)(F)F	0.73	x
O=c1[nH]c2c(s1)C(c1ccccc1)C1C3CCC(C3)C1S2 (stereo not drawn)	-1.3	x

Another view of some results above:
compound | CDC25B-CDK2 inh | TAR Tat displ
CCOC(=O)N1CCC(N2C(=O)c3ccccc3C2Nc2ccc3c(c2)OCCO3)CC1 (stereo not drawn) | -0.76 | -0.13
O=C(CN1C(=O)c2cccc3cccc1c23)N1CCN(Cc2ccc3c(c2)OCO3)CC1 | 0.19 | -0.8
COc1ccc(/C(O)=C2\C(=O)C(=O)N(CCCn3ccnc3)C2c2ccc(N(C)C)cc2)cc1 (stereo not drawn) | -1.4 | 0.45

Next results:
SMILES	CDC25B-CDK2 inh	TAR Tat displ
COc1ccc(S(=O)(=O)N(CCS(=O)(=O)N2CCNCC2)CC2CCCO2)cc1 (stereo not drawn)	x	2.7
Nc1ccc([N+](=O)[O-])cc1C(=O)Nc1ccccn1	-2.2	x
O=C(Cc1ccc(F)cc1)NC1CCSC1=O (stereo not drawn)	-1.7	x
Cc1nnc(N2C(=O)c3oc4ccccc4c(=O)c3C2c2ccc(C(C)C)cc2)s1 (stereo not drawn)	-0.89	-0.07
COc1ccc(OC2CCN(S(=O)(=O)c3ccc(C(C)(C)C)cc3)CC2)cc1	-2.1	-0.73
CCCOC(=O)C1=C(C)NC2=C(C(=O)CCC2)C1c1ccc(O)c(OCC)c1 (stereo not drawn)	-0.27	0.54
CCCCN(CC)CCNC(=O)c1c(C)oc2ncnc(N3CCOCC3)c12	x	-0.32
COCCNC(=O)c1c(NC(=O)c2cc(=O)c3cc(C)cc(C)c3o2)sc2c1CCCC2	-1.5	2.5
O=C(NCc1ccccn1)c1ccc(NC2=NC3CS(=O)(=O)CC3S2)cc1 (stereo not drawn)	x	2
COc1ccc(Cl)cc1-n1nnc(-c2nc(-c3ccncc3)no2)c1N	x	0.24
COc1ccc(OCc2c(C#N)c3ccccc3n2C)cc1	-0.35	1.3
CC(=O)Nc1nc2ccc(NC(=O)c3c([N+](=O)[O-])cnn3C)cc2s1	-0.42	2
COc1ccc(N2CCN(c3ncnc4onc(-c5ccc(Cl)cc5)c34)CC2)cc1	-1.3	1.9
CCOC(=O)Cc1cc(=O)n2[nH]c(C(F)(F)F)nc2n1	0.65	-0.73
CCC(C)NC(=O)Cn1nc(C)n2c(cc3occc32)c1=O (stereo not drawn)	-0.5	2.5
CCOc1ccc(-c2nnc(SCc3cc(=O)n4nc(C)sc4n3)o2)cc1	-1.4	2.3
CC1(C)CC(=O)C(C(C2=C(O)CC(C)(C)CC2=O)c2cccc(O)c2O)C(=O)C1 (stereo not drawn)	-0.28	1.6
Cc1ccccc1Nc1c(C)c(C)nc2ncnn12	x	1.5
COC(=O)c1cc(-c2cccnc2)no1	-2.1	-1.8
CN(C)c1nc(OCCOC(=O)c2ccccc2)nc(N(C)C)n1	-1	-0.31
CC1CC(=O)Nc2ccccc2N1S(=O)(=O)c1ccc(F)cc1F (stereo not drawn)	-1.6	x
CCCc1nn(C)cc1C(=O)NCC(=O)OCC	-2	x
Cn1ncc2c(NCc3ccccc3Cl)nc(N3CCCCC3)nc21	x	1.5
Cc1ccc(S(C)(=O)=NC(=O)c2cncc(C#Cc3ccccc3)c2)cc1 (stereo not drawn)	-1	x
Nc1nonc1C(=O)N1CCN(C(=O)c2ccc(Cl)cc2)CC1	-1.9	0.61

The closing 5 entries of the section above lead into the next:
SMILES	CDC25B-CDK2 inh	TAR Tat displ
CC1CC(=O)Nc2ccccc2N1S(=O)(=O)c1ccc(F)cc1F (stereo not drawn)	-1.6	x
CCCc1nn(C)cc1C(=O)NCC(=O)OCC	-2	x
Cn1ncc2c(NCc3ccccc3Cl)nc(N3CCCCC3)nc21	x	1.5
Cc1ccc(S(C)(=O)=NC(=O)c2cncc(C#Cc3ccccc3)c2)cc1 (stereo not drawn)	-1	x
Nc1nonc1C(=O)N1CCN(C(=O)c2ccc(Cl)cc2)CC1	-1.9	0.61
COC(=O)c1sc2ccccc2c1S(=O)(=O)Nc1ccc(F)cc1F	x	-0.42
Cc1nn(CC(=O)NCC2CCCO2)c(=O)c2cc3ccccc3n12 (stereo not drawn)	-3.1	3.1
O=S(=O)(NCc1nc(-c2ccc(C(F)(F)F)cc2)no1)c1cccc(C(F)(F)F)c1	-0.75	x
CC(C)CCNS(=O)(=O)c1ccc2c(c1)NC(=O)CO2	x	0.79
Cc1cn2c(=O)cc(COC(=O)c3cccc(Cl)c3)nc2s1	x	-1.7
COc1ccc(Nc2nc3ccccc3c(=O)s2)cc1	-0.55	2.2
Cc1ccccc1C(=O)N1c2ncnn2C2(CCCCC2)[C@@H]2CCCC[C@@H]21	-0.85	1.3
COCCNc1oc(-c2ccc(COc3ccc(C)cc3)o2)nc1C#N	-1.4	6.3
CCCn1c(=O)c2c(nc3n2CCN3Cc2ccccc2)n(C)c1=O	x	2.9
CC(C)CCN(C(=O)Cn1c(=O)oc2ccccc21)C(C)c1cccs1 (stereo not drawn)	x	-0.1
CC(C)[C@@H](NC(=O)OCc1ccccc1)C(=O)O	-1.3	x
Cc1ccc(N2CC(O)=C(c3nc4ccccc4s3)C2=N)cc1	-0.76	-2
COc1ccc(C2C(C#N)=C(N)N(c3ccc(OC)cc3)C3=C2C(=O)CC(C)(C)C3)cc1 (stereo not drawn)	-0.74	x
Cc1noc(/C=C/N(C)C)c1S(=O)(=O)N1CCCC(C(=O)NC2CCCC2)C1 (stereo not drawn)	-0.04	-1.4
Cn1c(=O)n(C)c2cc(S(=O)(=O)CC(=O)O)ccc21	-1	0.45
O=C1NC(c2ccc3c(c2)OCO3)C(C(=O)c2ccccc2)C(O)(C(F)(F)F)N1 (stereo not drawn)	-0.94	x
COCCn1c(SCc2ccc(F)cc2)nnc1-c1c[nH]c2ccccc12	-2.1	x
COc1ccccc1-c1nc2c3c(C)c(C)oc3ncn2n1	x	2.1
Cc1nc(C(Cl)(Cl)Cl)[nH]c(=O)c1SCCO	-0.99	x
O=C(CSc1nnc(CCCN2C(=O)c3cccc4cccc(c34)C2=O)n1-c1ccccc1)NCCCN1CCOCC1	-1.1	x
CN(C)CCN(Cc1ccccc1)S(=O)(=O)c1ccc2c(c1)CCCC(=O)N2	x	-0.21
O=C(CCS(=O)(=O)c1ccc(Cl)cc1)Nc1nc(-c2ccncc2)cs1	x	-0.01
Cc1noc2ncn(Cc3c(F)cccc3Cl)c(=O)c12	x	0.72
Cc1c(NC(=O)NCCc2ccc3c(c2)OCO3)c(=O)n(-c2ccccc2)n1C	-1.4	0.09
CCc1cc2c(N(C)Cc3ccco3)ncnc2s1	x	0.62

Ordered by count of non-hydrogen atoms (low to high): some entries from above.
SMILES	CDC25B-CDK2 inh	TAR Tat displ
CC(C)CCNS(=O)(=O)c1ccc2c(c1)NC(=O)CO2	x	0.79
Cc1ccc(N2CC(O)=C(c3nc4ccccc4s3)C2=N)cc1	-0.76	-2
Cc1c(NC(=O)NCCc2ccc3c(c2)OCO3)c(=O)n(-c2ccccc2)n1C	-1.4	0.09

(further entries)
SMILES	CDC25B-CDK2 inh	TAR Tat displ
C=CCNc1nc(N)c([N+](=O)[O-])c(Nc2ccccc2)n1	x	1.7
O=c1c2c(-c3ccc(Cl)cc3)noc2ncn1Cc1ccc(F)cc1Cl	x	-0.04
Nc1ccc(-c2cc(=O)n3[nH]cnc3n2)cc1	-0.16	11*
COc1ccc(C)cc1NS(=O)(=O)c1cc(-c2cc(C)no2)ccc1OC	x	0.14
COc1ccc(OC)c(N(C)S(=O)(=O)c2ccc3c(c2)NC(=O)CC(=O)N3)c1	0.92	1.5
CC1=C(c2ccccc2)S(=O)(=O)NC1=NCCN1CCOCC1	-1.7	-1.8
Cc1cc(C)cc(NC(=O)CSc2nc(=O)n(CCN3CCOCC3)c3c2CCC3)c1	x	-0.32
O=C(c1ccc(CS(=O)c2ccc(Br)cc2)o1)N1CCN(C2CCCCC2)CC1 (stereo not drawn)	x	0.82
Cc1ccc(Cn2c(C(=O)O)cc3oc(C)cc32)cc1	0.83	0.67
COc1ccc(Br)cc1S(=O)(=O)n1ccnc1C(C)C	-0.95	-0.33
CC(C)c1ccc(C2c3c(-c4ccccc4O)n[nH]c3C(=O)N2Cc2ccco2)cc1 (stereo not drawn)	-1.9	2.4
CCCN1CCN(C(=O)C2CCN(C(=O)c3cc4sccc4n3C)CC2)CC1	-2.6	x
CSc1ccccc1NC(=O)c1cnc2sc(N3CCOCC3)nn2c1=O	-3.1	1.6
S=c1[nH]nc(-c2ccncc2)n1-c1cccc(Cl)c1	-0.14	x
c1ccc(Cc2nnc3sc(-c4ccco4)nn23)cc1	-0.01	-1
CCOC(=O)N1CCN(c2ncc3c(n2)CC(c2ccc(Cl)cc2)CC3=O)CC1 (stereo not drawn)	-0.84	-0.34
Cc1nc(C)c(-c2cnc(NS(=O)(=O)c3cc(C(F)(F)F)cc(C(F)(F)F)c3)nc2)s1	-1.6	x
O=c1[nH]cnc2c(-c3ccc(Cl)cc3)nsc12	-5.1	1.4
O=C1c2cccc(F)c2C(=O)N1c1ccc(-c2nc3ccccc3o2)cc1	-0.85	x
N#Cc1ccc(NS(=O)(=O)c2cc(Cl)sc2Cl)cc1	1.1	x
CC1CC(Nc2ncnc3c2nnn3C)CC(C)(C)C1 (stereo not drawn)	x	2
c1csc(CNc2c3c(nc4ncnn24)CCC3)c1	x	-0.15
CCCN(CCC)C(=O)CN(C)S(=O)(=O)c1ccc2c(c1)c(=O)n(C)c(=O)n2C	-0.65	1.4
COc1ccc(C2c3c(-c4ccccc4O)n[nH]c3C(=O)N2CC2CCCO2)cc1OC (stereo not drawn)	-1.2	1.5
Cc1csc2nc(CSc3ccccc3)cc(=O)n12	-2.4	2.7

Brought forward from above: 5 compounds, then new ones.
SMILES	CDC25B-CDK2 inh	TAR Tat displ
CC1CC(Nc2ncnc3c2nnn3C)CC(C)(C)C1 (stereo not drawn)	x	2
c1csc(CNc2c3c(nc4ncnn24)CCC3)c1	x	-0.15
CCCN(CCC)C(=O)CN(C)S(=O)(=O)c1ccc2c(c1)c(=O)n(C)c(=O)n2C	-0.65	1.4
COc1ccc(C2c3c(-c4ccccc4O)n[nH]c3C(=O)N2CC2CCCO2)cc1OC (stereo not drawn)	-1.2	1.5
Cc1csc2nc(CSc3ccccc3)cc(=O)n12	-2.4	2.7
COc1ccccc1C1C2=C(CCCC2=O)Nc2nc(SCc3ccc(F)cc3)nn21 (stereo not drawn)	-1.5	2.7
O=C1CCCC2=C1C(c1ccccc1F)n1nc(SCc3ccc(F)cc3)nc1N2 (stereo not drawn)	-1.9	-1
CCc1ccc(NS(=O)(=O)c2ccc(-c3cc(C)no3)s2)cc1	x	-0.29
Cn1ncc2c(Nc3cccc(Cl)c3)nc(N3CCN(CCO)CC3)nc21	x	1.3
CCCN(CCC)C(=O)C(=O)c1c[nH]c2ccccc12	-0.94	x
Cc1nn(-c2ccccc2)c2sc(C(=O)Nc3c(C)n(C)n(-c4ccccc4)c3=O)cc12	-0.79	-0.2
CC1=C(c2ccc(C)cc2)S(=O)(=O)N(Cc2ccc(C(=O)NCc3ccc(C)o3)cc2)C1=O	x	0.13
CCc1ccc(-n2c(=O)c3c(C)c(C)sc3n(Cc3cc(=O)n4ccccc4n3)c2=O)cc1	-1.6	x
COc1ccc(S(=O)(=O)NCC(c2ccco2)N2CCN(c3ccc(F)cc3)CC2)cc1OC (stereo not drawn)	x	1.3
